Compound activity (PubChem)
HIV Env fusion – HIV envelope-mediated fusion inhibition. HeLa-JRFL Env/CEM21 cell fusion, luciferase. inhibition, % at 12.3 µM. actives 1.1% (n = 360,000);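 active means mean replicate inhibition score of at least 50 and every replicate individually at or above 50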;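 further: 0% = plate neutral controls and 100% = maraviroc near 300 nM; one replicate is shown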
Rce1 inhib – inhibitors of yeast Ras-converting enzyme; Q03530; yeast membranes, quenched prenylated peptide cleavage fluorescence; calls only; actives 0.27% (n = 290,000);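 active means fall in fluorescence gain of 50% or more versus controls, with final raw signal at or below 3038400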;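 further: plate controls were neutral control wells for no effect and wells lacking membranes for full effect; tested at 10 µM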
Target sequence (Q03530 whole entry, looked up): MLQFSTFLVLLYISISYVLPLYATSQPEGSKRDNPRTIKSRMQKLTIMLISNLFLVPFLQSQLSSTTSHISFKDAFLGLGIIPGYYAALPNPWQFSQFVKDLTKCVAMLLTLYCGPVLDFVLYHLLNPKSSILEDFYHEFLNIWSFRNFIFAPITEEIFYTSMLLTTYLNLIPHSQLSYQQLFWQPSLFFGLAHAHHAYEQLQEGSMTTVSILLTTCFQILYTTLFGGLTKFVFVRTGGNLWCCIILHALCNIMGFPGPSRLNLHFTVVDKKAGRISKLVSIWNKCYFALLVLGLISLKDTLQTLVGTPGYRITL
MT1-MMP act inh – MT1-MMP (human) activation inhibition; HT1080 RFP-PRO-GFP cells, GFP/RFP ratio fluorescence, overnight; percent of plate control window, DMSO zero; GFP/RFP ratio change, % at 20 µM; actives 0.061% (n = 360,000); AID 651647;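 active means GFP/RFP ratio change of at least 30% with cell ATP level not reduced by more than half and red fluorescence within 50% of control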; further: strong numbers were not always called active
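Read-out: GFP/RFP fluorescence ratio; Test system: RFP-PRO-GFP reporter HT1080 cells; Compound dosing: single-point 20 µM compound, 1% DMSO; Times: overnight compound exposure at 37 °C.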
Yeast UUG start – alters start codon recognition fidelity in yeast. activity score, % at 18.7 µM. actives 0.13% (n = 350,000). S. cerevisiae UUG-firefly luciferase reporter, luminescence/redox ratio;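 active means replicate mean at a twofold rise or more, about +100% in these data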;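 further: firefly luciferase made from a UUG start codon reports start codon fidelity; reporter light over untreated wells divided by growth signal over untreated wells; some hits fall short of that in this replicate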
PABP polyA inh – blocks human PABP binding to poly(A) RNA. P11940. fluorescence polarization. inhibition, % at 35 µM. actives 1% (n = 290,000);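 active means 50% or more with normal probe brightness, or confirmed in later tests; about a fifth of its hits are not listed in these tables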;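 further: calls also rest on retests at 20 µM and on dose response follow-up; controls were probe without protein and protein plus probe with vehicle; some compounds called inactive have numbers as strong as hits; many hits fall short of the cut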
Target sequence (P11940 whole entry, looked up): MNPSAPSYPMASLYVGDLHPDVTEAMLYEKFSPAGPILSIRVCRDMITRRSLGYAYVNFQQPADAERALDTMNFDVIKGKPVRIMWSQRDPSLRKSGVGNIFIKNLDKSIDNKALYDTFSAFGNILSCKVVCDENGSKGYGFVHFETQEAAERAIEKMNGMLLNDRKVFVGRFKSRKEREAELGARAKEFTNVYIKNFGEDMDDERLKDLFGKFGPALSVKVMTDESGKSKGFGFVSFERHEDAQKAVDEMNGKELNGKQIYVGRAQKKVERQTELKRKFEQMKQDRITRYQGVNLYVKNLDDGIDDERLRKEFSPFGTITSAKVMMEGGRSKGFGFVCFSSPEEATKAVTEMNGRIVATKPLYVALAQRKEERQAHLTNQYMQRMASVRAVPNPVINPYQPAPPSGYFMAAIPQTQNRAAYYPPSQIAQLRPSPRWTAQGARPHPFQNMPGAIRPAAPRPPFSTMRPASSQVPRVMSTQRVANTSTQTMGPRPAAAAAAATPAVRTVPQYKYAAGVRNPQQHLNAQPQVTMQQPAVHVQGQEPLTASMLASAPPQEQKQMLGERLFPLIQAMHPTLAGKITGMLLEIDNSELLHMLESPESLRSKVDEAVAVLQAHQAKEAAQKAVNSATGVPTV
eIF4H inh – inhibitors of RNA binding by human eIF4H. actives 0.94% (n = 290,000). eIF4H fluorescence polarization binding assay. Q15056. AID 2012. inhibition, % at 35 µM;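 active means 50% or more with normal probe brightness, or confirmed in later tests; about a fifth of its hits are not listed in these tables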;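 further: calls also rest on retests at 20 µM and on dose response follow-up; 0% = protein and probe with vehicle and 100% = probe without protein; strong numbers were not always called active; many hits fall short of the cut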
CSC inhib – cancer stem cell inhibition | actives 1.1% (n = 300,000) | inhibition, % at 7.5 µM | cancer stem cell-like cells viability, luminescence;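 active means mean at 75% or more and at least half the replicates too; tested in HMLE shEcad cells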;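 further: 0% = median of negative and 100% = median of positive control wells; the first replicate is given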
MT1-MMP act inh RFP – recorded beside MT1-MMP act inh, whose call it bears; RFP signal change, %; measured here: RFP expression control read;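 0 = vehicle wells; hits needed this value within 50% of zero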
Starred values were filed as active, the others as inactive; i = inactive; / = not tested or not shown; + = active, no number; & = joins results of further samples.

Structure	HIV Env fusion	Rce1 inhib	MT1-MMP act inh	MT1-MMP act inh RFP	Yeast UUG start	PABP polyA inh	eIF4H inh	CSC inhib
C[C@@H]1CN([C@@H](C)CO)S(=O)(=O)c2ccc(Br)cc2O[C@@H]1CN(C)Cc1ccccn1	-27	/	3	1	-7&-7	/	/	/
c1cnc(Oc2ccc3oc4ccccc4c3c2)nc1	-205	i	5	2	11	-4	-8	-5
c1ccc(CCc2nn3c(Cn4cnc5ccccc54)nnc3s2)cc1	/	i	0	-12	/	3	-4	-15
O=C(c1ccc(Cl)c([N+](=O)[O-])c1)N1CCN(Cc2ccc3c(c2)OCO3)CC1	33	i	-2	-11	/	-19	3	3
C=CCC[C@@H](Cc1ccc(F)cc1)C(=O)OC[C@H](C)NC(=O)[C@@H](CC=C)CC(=O)N(CCO)Cc1ccccc1	-37	/	-7	-14	-9	/	/	/
CCOC(=O)c1c(NC(=O)CN2CCN(C(=O)c3ccco3)CC2)sc(C(N)=O)c1C	16	i	1	-1	/	2	0	-7
C[C@@H]1CN([C@@H](C)CO)C(=O)c2cc(NC(=O)C3CCCCC3)ccc2O[C@@H](C)CCCCO[C@H]1CN(C)S(=O)(=O)c1ccc(Cl)cc1	-9	/	-3	-8	-11&2	/	/	/
Cc1ccc(CNC(=O)C(=O)NCC2OCCN2C(=O)c2cccs2)cc1 (stereo not drawn)	-16	i	3	2	2	-4	1	-3
CCOC(=O)CS(=O)(=O)c1ccc2ccccc2c1	-27	i	-1	2	-10	2	4	/
O=C(NC(=S)Nc1ccccc1[N+](=O)[O-])c1ccccc1Cl	-15	i	2	4	3	2	7	14
O=C(NCc1nnc(SCC(=O)N2CCCC2)o1)c1ccccc1	7	i	1	2	-2	3	-4	-8
CCOC(=O)CN1C(=O)C(Sc2n[nH]c(-c3ccc(C)cc3)n2)CCc2ccccc21 (stereo not drawn)	/	i	2	-16	10	-5	-8	1
CC1CCCC(NC(=O)COC(=O)c2ccc(N(C)C)cc2)C1C (stereo not drawn)	-32	i	2	0	-10	2	-2	-3
O=C(NC(Cc1c[nH]c2ccccc12)c1nnc2n1CCCCC2)c1cccs1 (stereo not drawn)	-40	i	2	3	-22	-4	-2	12
CCc1cccc2c(C(=O)COC(=O)c3ccc([N+](=O)[O-])s3)c[nH]c12	-22	i	1	3	/	-5	6	-4
CC(=O)Nc1cccc(NC(=O)COC(=O)C2CC3CCCC(C2)C3=O)c1 (stereo not drawn)	-6	i	-5	0	-8	5	-11	17
O=C(Nc1ccc(NC(=O)C23CC4CC(CC(C4)C2)C3)cc1)c1cc(F)c(F)cc1Cl	-5	i	2	5	/	-6	3	-1
COc1cc(OC)c(-c2nnc(-c3ccc(OC)c(OC)c3OC)o2)cc1OC	19	i	13	-3	21	-4	-8	-4
O=C(O)CC12CC3CC(C1)CC(n1ncc(NCc4ccc(F)cc4)c(Cl)c1=O)(C3)C2	9	i	-2	0	11	11	7	1
COC(=O)C1=C(C)NC(=O)C1(NC(=O)c1cccnc1)C(F)(F)F (stereo not drawn)	/	i	1	2	-29	5	-2	7

3 records drawn at random from the list so far:
Structure	HIV Env fusion	Rce1 inhib	MT1-MMP act inh	MT1-MMP act inh RFP	Yeast UUG start	PABP polyA inh	eIF4H inh	CSC inhib
CCOC(=O)CS(=O)(=O)c1ccc2ccccc2c1	-27	i	-1	2	-10	2	4	/
C=CCC[C@@H](Cc1ccc(F)cc1)C(=O)OC[C@H](C)NC(=O)[C@@H](CC=C)CC(=O)N(CCO)Cc1ccccc1	-37	/	-7	-14	-9	/	/	/
O=C(c1ccc(Cl)c([N+](=O)[O-])c1)N1CCN(Cc2ccc3c(c2)OCO3)CC1	33	i	-2	-11	/	-19	3	3

More entries follow.
Structure	HIV Env fusion	Rce1 inhib	MT1-MMP act inh	MT1-MMP act inh RFP	Yeast UUG start	PABP polyA inh	eIF4H inh	CSC inhib
CCCNC(=O)CSCc1nc(-c2ccc(SC)cc2)oc1C	15	i	-4	-4	/	12	4	-1
COc1ccc(-c2nn(CCC#N)cc2C(=O)Nc2cccc(C(=O)O)c2)cc1[N+](=O)[O-]	4	/	3	3	2	2	-8	-5
COc1cccc(-n2nnc3c(=O)n(Cc4c(F)cccc4Cl)cnc32)c1	/	i	-3	-1	0	-19	-5	-5
O=C(O)Cc1ccc(NC(=O)Nc2cccc(Cl)c2)cc1	-19	i	-4	1	/	0	-4	-2
O=C(O)c1cc(-c2ccc3c(c2)OCO3)nc2ccc(Cl)cc12	-10	i	0	3	-9	-9	-8	10
COC(=O)[C@@H]1C[C@@]2(O)[C@@H](O)[C@@H](O)[C@@H](O)C[C@H]2N1Cc1ccc(Cl)cc1	-51	i	-2	2	-5	-7	9	-4
CC(=O)Nc1ccc(S(=O)(=O)N2CCN(C(=O)c3cccnc3)CC2)cc1	-486	i	3	1	-22	-6	-4	12
COc1cccc(NC(=O)N2CCC(NC(=O)c3ccco3)CC2)c1	1	/	1	2	/	-8	0	18
COc1ccc(C2NC(=O)NC(C)=C2C(=O)OCc2ccc3c(c2)OCO3)cc1OC (stereo not drawn)	6	i	0	-4	-1	9	1	-6
CCOC(=O)C1CCN(C(=O)COc2ccc(Cl)cc2)CC1	-48	i	11	7	-12	10	4	/
Cc1cccc(N(C)S(=O)(=O)c2c[nH]c3ccc([N+](=O)[O-])cc23)c1	12	i	2	-1	-11	9	-16	/
O=C(Nc1ccccc1Cl)NC1(C(=O)NCc2cccnc2)CCCCC1	-1	i	1	3	-11	-2	2	14
Cc1nn(-c2ccccc2)c(C)c1/C=C/C(=O)OCC(=O)Nc1ccc(C(N)=O)cc1	-9	/	-3	-3	-18	/	/	/
Cc1cc2c(cc1S(=O)(=O)N(C)c1ccccc1)NC(=O)CO2	-24	i	2	2	-4	-9	-5	0
O=C(CN1C(=O)NC2(CCc3ccccc32)C1=O)c1ccc2c(c1)OCCO2 (stereo not drawn)	-12	i	-2	-2	/	3	5	-2
CCc1ccc(N(CC(=O)Nc2nc3ccc(C)cc3s2)S(=O)(=O)c2c(C)noc2C)cc1	-42	i	-20	-13	1	-2	-19	106*
O=C(Nc1ccc(-c2csc(Nc3ccc(Cl)cc3)n2)cc1)c1cc([N+](=O)[O-])cc(C(F)(F)F)c1	18	i	5	-11	-7	1	9	149*
O=C1CCC(C(=O)OC(C(=O)Nc2ccc([N+](=O)[O-])cc2Br)c2ccccc2)=NN1 (stereo not drawn)	/	/	3	0	-8	/	/	16
CCSC1=C(C#N)C(CC(C)C)C2=C(CCCC2=O)N1 (stereo not drawn)	8	i	-12	-9	-19	-5	-3	4
O=C(OCC(=O)c1cccc2ccccc12)c1ccc(CO)cc1	/	i	1	3	-8	0	-3	-14
CCOc1cc(CN2CCN(Cc3ccc(C)o3)C(CCO)C2)ccc1OC (stereo not drawn)	4	i	-1	1	/	-7	-1	-7
C[C@H](NC(=O)C1CC(=O)N(c2ccc(F)cc2)C1)C(=O)N1CCCCC1 (stereo partly drawn)	-2	i	-1	-1	-12	3	5	-4
COc1ccc(NC(=O)CN(C)C(=O)/C=C/c2ccc(OCc3ccccc3)cc2)cc1	12	i	-1	-1	-3	2	7	/
CCCCC(=O)Nc1nnc(SCC(=O)NC2CCCC2)s1	-38	i	-1	-2	-9	-1	-9	-15
Cc1ccc(NC(=O)NCCSc2ccc(C)cc2)cc1	24	i	-5	-4	-21	12	-9	10
CCCNC(=O)CCC(NS(=O)(=O)c1ccc(C)cc1)C(=O)NCCC (stereo not drawn)	/	i	-2	0	3	-3	9	-7
Cc1cccc(C)c1NC(=O)Cn1cc(C=O)c2ccccc21	36	i	11	-24	2	0	-12	-12
NC(=O)c1cn(-c2ccccc2)nc1-c1cc2ccccc2oc1=O	-7	i	2	-5	-7	3	-2	0
COc1cccc(COC(=O)c2ccc3c(c2)NC(=O)C(C)S3)c1OC (stereo not drawn)	-6	i	4	1	-15	/	/	-1
O=C(NCC1COCCO1)c1cc(COc2c(F)cccc2F)on1 (stereo not drawn)	11	i	1	1	-11	6	-6	-10
CCC(=O)Nc1ccc(Cl)c(NC(=S)NC(=O)COc2ccc(Cl)cc2)c1	-6	i	3	4	/	6	-3	4
CCOc1ccc(CC(=O)NNC(=S)NC)cc1	0	i	-1	-2	-14	-10	2	-10
C#CCOCCOCCOCCNc1nc(N2CCOCC2)nc(N2CCN(C(=O)[C@H](CCCCN)n3cc(CN)nn3)CC2)n1	-5	/	-1	0	9	/	/	-7
COCCNC(=O)C1(C)CCCN(C(=O)c2ccco2)C1 (stereo not drawn)	19	/	4	5	-12	/	/	/
CCOC(=O)C[C@H]1c2ccccc2S(=O)(=O)N1Cc1cc(OC)c(OC)c(OC)c1	-4	+	-1	1	-13	/	/	-1
COc1ccc(NC(=O)Cn2cnc3c(cnn3-c3ccc(C)c(C)c3)c2=O)c(OC)c1	/	i	1	7	-15	7	3	-11
Cc1oc2ccc(OCC(N)=O)cc2c1C(=O)OC(C)C	-60	i	-2	0	-6	12	12	10
COc1cc(NC(=O)c2ccc(-c3cccnc3)c3ccoc23)cc(OC)c1OC	31	/	3	-7	1	/	/	/
CC(=O)Nc1ccc(NC(=O)c2c(C)nn(-c3ccccc3)c2Cl)cc1C	3	i	4	7	/	-6	8	2
C=CCN(c1ccccc1)S(=O)(=O)c1cccc(C(=O)Nc2nnc(SCC)s2)c1	23	i	4	8	/	-6	3	15
COc1ccccc1NC(=O)c1ccc(C(=O)c2ccccc2)o1	9	i	-1	-4	-8	-8	-1	/
CCCCNC(=S)Nc1cccc(S(=O)(=O)NC2=NCCC2)c1	-2	i	3	3	-19	/	/	0
Cc1ccc(OCC(=O)N2CCN(c3ccc([N+](=O)[O-])c(N4CCOCC4)c3)CC2)cc1	/	i	6	1	-9	-5	-1	1
CC(=O)C(Sc1ccc2nnc(-c3ccncc3)n2n1)C(C)=O	24	i	-5	0	-18	-9	-10	-12
O=C(NC1CCN(S(=O)(=O)c2cccc([N+](=O)[O-])c2)CC1)C1CCCCC1	-8	/	-3	-3	3	2	-6	4
CCOC(=O)C1CCN(C(=O)CC2(CC(=O)O)CCCC2)CC1	-16	i	3	5	0	0	-6	-9
COc1ccc(CCNC(=O)CSc2nc(C)nc3c2oc2ccccc23)cc1OC	/	i	-1	-1	-8	0	-4	-6
CCN1CCN(CC(=O)Nc2ccc(C)cc2C)C(=O)C1=O	6	i	-1	4	-6	2	1	-5
CC1(C(=O)NCc2cccs2)CCN1C(=O)Cc1cccc2ccccc12 (stereo not drawn)	-6	/	2	-1	-5	/	/	/
O=S(=O)(c1ccc(-c2csc(-c3cccnc3)n2)cc1)N1CCOCC1	-3	i	7	0	/	-5	-11	-10
CC1CCCC(NC(=O)COC(=O)c2cccc(S(=O)(=O)N3CCCCC3)c2)C1C (stereo not drawn)	-6	/	2	6	/	/	/	-14
CCOc1ccccc1NC(=O)CCc1nnc2ccc(N3CCC4(CC3)OCCO4)nn12	6	i	1	5	-4	6	-7	2
O=C(Nc1cc(C(F)(F)F)ccc1-n1cncn1)C1CC1	0	i	-1	2	-21	/	/	1
CNC(=O)CSCc1cnn(-c2ccccc2)c1-n1cccc1	-15	i	4	6	-12	3	4	-16
Cc1ccc(C(=O)NCCSCc2ccc(Cl)cc2Cl)cc1[N+](=O)[O-]	9	i	-1	-3	/	0	4	55
O=C(c1ncn2c1c(=O)[nH]c1ccccc12)N1CCc2ccccc2C1	15	/	-1	0	-11	/	/	/

Structures listed above shown as hits in Rce1 inhib:
Molecule,HIV Env fusion,Rce1 inhib,MT1-MMP act inh,MT1-MMP act inh RFP,Yeast UUG start
CCOC(=O)C[C@H]1c2ccccc2S(=O)(=O)N1Cc1cc(OC)c(OC)c(OC)c1,-4,+,-1,1,-13

The list is partial; rates above refer to the full screens.
